Screens deposited in PubChem BioAssay by several laboratories.
UCH37 DUB inh – blocks the human deubiquitinase UCH37. Q9Y5K5. 0.33% of 330,000 active. inhibition, % (concentration not given with the values). purified proteasome/UCH37, Ub-AMC cleavage fluorescence;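 active = mean of two replicates above 20%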;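 also: 0% = compound-free wells with enzyme and 100% = wells lacking proteasome; stock transfer was 100 nL into about 20 µL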
Target sequence (Q9Y5K5 whole entry, looked up): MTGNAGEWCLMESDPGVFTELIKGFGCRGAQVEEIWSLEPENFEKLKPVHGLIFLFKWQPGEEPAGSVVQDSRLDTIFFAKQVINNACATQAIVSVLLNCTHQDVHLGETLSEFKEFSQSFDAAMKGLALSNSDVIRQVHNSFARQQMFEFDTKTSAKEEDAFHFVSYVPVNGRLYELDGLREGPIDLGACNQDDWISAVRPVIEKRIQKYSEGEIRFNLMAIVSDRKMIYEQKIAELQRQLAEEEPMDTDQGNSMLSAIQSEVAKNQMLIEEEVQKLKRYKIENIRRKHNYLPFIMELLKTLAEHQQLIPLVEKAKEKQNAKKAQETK
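Material: Human UCH37 enzyme supplied as purified proteasome complex | Schedule: 30 min compound-proteasome preincubation then 25 min substrate reaction, room temperature | Detection: AMC fluorescence from Ub-AMC cleavage, excitation 355 nm, emission 460 nm | Benchmarks: Wells without proteasome as full block, compound-free enzyme plus substrate as uninhibited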
Vif TR-FRET – HIV-1 Vif–A3G interaction blockers – biochemical, TR-FRET, GST-Vif 1-94, biotin-A3G peptide, dose response retest, primary screen (AID 1117319); 0.57% of 260,000 active; TR-FRET GST-Vif / biotin-A3G peptide binding; higher % means a stronger effect; test concentration not given here; strong numbers were not always called active; inhibition, %, or IC50 in µM where a hit was titrated;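 active = above the screen mean plus three standard deviations and confirmed in dose response; inconclusive = results disagree or hit not tested in dose response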;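 also: Vif residues 1-94 fused to GST binding biotinylated APOBEC3G peptide 110-148; 0% = full assay without inhibitor and 100% = GST in place of GST-Vif; retest series ran down from 100 µM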
MLL AF4-AF9 inh – inhibitors of human MLL-AF4/AF9 interaction. P42568. AlphaScreen, biotin-AF4 peptide binding to FLAG-AF9. inhibition, % at 10 µM. 0.47% of 350,000 active. AID 651704;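 active = every replicate reaching a set inhibition limit, whatever the replicate mean, cut at about 25% in these data; inconclusive = mean inhibition reaches that limit but some replicates miss it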;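 also: 0% = plate neutral control median and 100% = total signal loss; the record names both 10 and 1 µM as test concentration; the first replicate is given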
HNF4A DNA FP – change in binding of human HNF4 alpha to DNA. 0.3% of 360,000 active. AID 1224865. HNF4a-FITC DNA binding, fluorescence polarization, 1 h. activity change, % at 10 µM; in the data active = activity change above about 30%, passing the limit was not always enough;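 also: controls were the assay level and a saturating level of protein; the project sought stronger binding though the title names inhibitors; some compounds called inactive have numbers as strong as hits; positive values seem to mean higher polarization but the record does not say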
Target sequence (P41235 whole entry, looked up): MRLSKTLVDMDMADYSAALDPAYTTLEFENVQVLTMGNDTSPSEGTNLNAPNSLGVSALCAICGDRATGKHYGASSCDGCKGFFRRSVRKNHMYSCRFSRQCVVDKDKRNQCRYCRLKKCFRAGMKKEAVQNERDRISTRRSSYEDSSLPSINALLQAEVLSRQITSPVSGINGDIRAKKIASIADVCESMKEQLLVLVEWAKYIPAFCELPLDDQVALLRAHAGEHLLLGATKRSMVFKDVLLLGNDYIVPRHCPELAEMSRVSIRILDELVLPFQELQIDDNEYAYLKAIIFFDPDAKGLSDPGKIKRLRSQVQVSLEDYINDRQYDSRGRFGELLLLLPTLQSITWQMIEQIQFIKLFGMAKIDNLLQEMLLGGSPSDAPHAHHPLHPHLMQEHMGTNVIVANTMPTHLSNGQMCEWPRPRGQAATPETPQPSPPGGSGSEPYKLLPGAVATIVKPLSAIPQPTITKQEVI
RanGTP-Impb inh – inhibitors of RanGTP-importin-beta interaction, primary screen, biochemical, FRET, CFP-Ran, YFP-importin-beta, homogeneous. cell-free CFP-Ran/YFP-importin-beta FRET ratio. inhibition, % (no concentration beside the values). 1.1% of 300,000 active. AID 2216;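 active = most replicates above 15%; inconclusive = exactly half above 15%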;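 also: 0% = DMSO wells and 100% = Ran loaded with GDP instead of GTP; wells of about 40 µL received 100 nL stock; the first replicate is given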
Ecoli growth – blocks Escherichia coli growth. OD600 absorbance (no concentration beside the values). OD600, 23 h; active compounds read low. 0.21% of 330,000 active;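 active = OD600 absorbance below the run mean of sample wells minus 3.6 SD, in any replicate, cut at about 0.56 in these data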;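 also: stock transfer was 300 nL into about 60 µL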
FGF22 binding – FGF22 (human) thermal shift binding. Q9HCT0. calls only at 9.99 µM. AID 651658. 1.5% of 340,000 active. recombinant FGF22 thermal shift, SYPRO orange fluorescence; percent of sucrose octasulfate shift, DMSO zero;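 active = melting point raised past a set limit in the mean and every replicate; inconclusive = no clear call; three in four hits are not shown here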
Target sequence (Q9HCT0 whole entry, looked up): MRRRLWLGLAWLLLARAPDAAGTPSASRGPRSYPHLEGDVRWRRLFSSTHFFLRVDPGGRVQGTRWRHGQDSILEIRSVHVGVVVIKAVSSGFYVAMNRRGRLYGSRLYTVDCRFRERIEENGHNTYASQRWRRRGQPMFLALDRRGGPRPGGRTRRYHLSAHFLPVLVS
Starred values were filed as active, the others as inactive; i = inactive; ? = inconclusive; nt = no result given; & = joins results of further samples.

SMILES	UCH37 DUB inh	Vif TR-FRET	MLL AF4-AF9 inh	HNF4A DNA FP	RanGTP-Impb inh	Ecoli growth	FGF22 binding
Cc1cc(=O)[nH]c(SCC(=O)Nc2cc(S(=O)(=O)N(C)C)ccc2Cl)n1	0.7	-7%	-0.3	4.8	1.6	0.64	i
O=C(CCN1CCCC1)Nc1ccc(Br)cc1	5.5	1%	nt	2.3	0.8	0.7	nt
Cc1cccc(-c2nc(CN3CCN(Cc4cccc(F)c4)CC3)c(C)o2)c1	3.0	nt	3.3	2.1	1.0	0.71	i
CCc1ccc(NC(=S)NC2CC3CCCC(C2)N3Cc2ccccc2)cc1 (centres undefined)	2.9	nt	8.7	1.6	-0.1	0.69	i
O=C(Nc1ccc2c(c1)CCC2)c1cnccn1	5.5	10%	nt	7.0	-2.4	0.62	nt
CN(Cc1ccccc1OCCO)CC1CCCN(CCc2ccc(Cl)cc2)C1 (centres undefined)	-1.3	-1%	6.9	-1.9	3.4	0.63	i
COc1ccc(/C=N/NC(=O)CNS(=O)(=O)c2ccc(C)cc2)cc1	nt	-1%	-1.9	0.7	-5.5	nt	nt
O=C(COCc1nc2ccccc2c(=O)[nH]1)NCC1CCCCC1	5.6	-6%	-0.8	3.8	-0.4	0.71	i
Cc1ccc(C(=O)N2CCN(c3ccc([N+](=O)[O-])c(NCc4ccco4)c3)CC2)cc1	5.7	-3%	nt	1.2	-2.8	0.74	nt
CC(CCc1ccccc1)C(=O)NO (centres undefined)	0.7	-2%	nt	-1.1	2.9	0.72	nt
Cc1cs/c(=N/C(=S)Nc2ccccc2)n1C	nt	-10%	nt	3.2	0.6	nt	nt
Cc1ccc(C)c(-n2c(-c3ccc4c(c3)OCO4)n[nH]c2=S)c1	-4.5	1%	nt	0.1	0.4	0.67	nt
CCn1ccnc1CC1COc2ccccc2O1 (centres undefined)	1.6	nt	-3.6	-0.2	nt	0.7	i
Cc1ccc2c(Cl)cc(Cl)c(OCC(=O)NC(C)(C)C)c2n1	1.1	23%	-1.5	2.4	0.9	0.63	i
CC(C)CC(=O)N1CC(=O)Nc2ccc(F)cc2C1c1ccccc1 (centres undefined)	0.5	3%	-8.3	-1.1	2.0	0.64	i
CSc1ccccc1NC(=O)c1cc2c(=O)n3ccccc3nc2s1	-113	-4%	-0.6	0.6	71*	0.72	i
Cc1cccc2c(N=Nc3ccc(S(=O)(=O)Nc4ccc(Cl)cc4)cc3[N+](=O)[O-])c(O)[nH]c12	9.2	nt	1.4	2.3	-2.6	0.7	i
O=C(CSc1nc2ccccc2c(=O)n1Cc1ccco1)NCc1ccccc1	0.0	nt	nt	-1.4	0.5	0.7	nt
CC(=O)Nc1ccc(NS(=O)(=O)Cc2ccccc2)cc1	0.5	4%	nt	2.3	2.3	0.69	nt
N#Cc1ccc2sn(-c3ccccc3)c(=O)c2c1	nt	4%	-13	-2.2	nt	nt	i
CNc1c(NS(=O)(=O)c2cc(OC)ccc2OC)c(=O)oc2ccccc12	2.3	nt	-2.3	0.7	7.1	0.65	i
CCN(CC)C(=O)CSc1nc2sc3c(c2c(=O)n1CCOC)CCC3	5.4	nt	-1.6	1.3	1.2	0.71	i
CSCCC(NC(=O)c1ccccc1)C(=O)NC1CCCC1 (centres undefined)	-0.1	8%	3.8	-1.5	4.8	0.69	i
C=CCn1c(SCC(=O)c2ccc(NS(=O)(=O)c3ccccc3)cc2)nnc1-c1cccs1	6.9	6%	nt	0.0	5.6	0.76	nt
O=C(c1ccc2c3c(cccc13)CC2)C1CCCN(Cc2ccc(OCCO)cc2)C1 (centres undefined)	-198	-1%	15	2.8	2.2	0.66	i

Other records:
SMILES	UCH37 DUB inh	Vif TR-FRET	MLL AF4-AF9 inh	HNF4A DNA FP	RanGTP-Impb inh	Ecoli growth	FGF22 binding
CCCn1nnc(NC(=S)NC(=O)CC)n1	2.2	7%	nt	1.6	?	0.72	nt
Cc1ccc([N+](=O)[O-])cc1-c1ccc(/C=N\n2nnnc2N)o1	nt	5%	0.2	0.2	3.2	nt	i
COc1ccc(CC(=O)N(CC2CCCO2)c2nc3ccccc3s2)cc1 (centres undefined)	1.5	nt	12	-1.1	?	0.64	i
COc1ccc(NC(=O)N(C)C[C@H]2Oc3ccc(NS(=O)(=O)c4ccccc4)cc3C(=O)N([C@H](C)CO)C[C@@H]2C)cc1	-0.6	nt	-1.7	0.1	nt	nt	i
COCCn1c(SCC(=O)N2CCCCC2)nc2c([nH]c3ccccc32)c1=O	-1.8	nt	-1.0	3.1	4.0	0.71	i
C/C(=N\Nc1nc(C)cc(-c2ccccc2)n1)c1cccc(N)c1	nt	nt	8.5	-2.5	-2.7	nt	i
C=CCNC(=O)COc1coc(CN2CCN(C(=O)c3ccco3)CC2)cc1=O	0.2	nt	0.0	0.3	0.9	0.69	i
Cc1ccc(NC(=O)CCn2c(=O)c3cccn3c3ccccc32)c(C)c1	0.0	nt	2.5	-0.8	1.7	0.68	i
CC(=C1C(=O)c2ccccc2C1=O)N1CCN(c2ccc(F)cc2)CC1	7.8	nt	-0.6	0.3	2.7	0.61	i
CC(=O)Nc1ccc(-c2ccnc3c2CC(C)(C(=O)Nc2cccc(C(F)(F)F)c2)O3)cc1 (centres undefined)	nt	nt	1.0	5.7	nt	nt	i
CC(=O)N1CCC(C(=O)Nc2cc(S(=O)(=O)N3CCCCC3)ccc2C)CC1	nt	4%	-5.2	-0.5	nt	nt	i
CC(C)(C)C(=O)NNC(=O)CCCOc1ccc(Cl)cc1Cl	4.1	-2%	nt	-2.4	2.9	0.66	nt
Cc1cc(C)nc(NS(=O)(=O)c2ccc(NC(=O)CN3C(=O)C4CC=CCC4C3=O)cc2)n1 (centres undefined)	1.1	1%	-2.4	-2.7	1.3	0.73	i
COc1cc(NC(=O)c2cccs2)c(C(=O)OCC(=O)c2cc(C)n(-c3ccccc3)c2C)cc1OC	1.3	-31%	nt	7.9	-0.2	0.72	nt
O=C(COC(=O)/C=C/c1ccc(F)cc1)Nc1ccc(S(=O)(=O)N2CCOCC2)cc1	0.7	nt	3.5	-2.4	nt	0.65	i
COC1=C(C)C(=O)C2=C(C1=O)C1C3CC4=C(C(=O)C(OC)=C(C)C4=O)C(CNC(=O)C(C)=O)N3C(C#N)C(C2)N1C (centres undefined)	nt	28%	4.0	-1.5	nt	nt	i
COc1cccc(NC(=O)CN2C(=O)NC3(CCCC3)C2=O)c1	1.9	-6%	0.0	-0.8	3.6	0.69	i
O=C(N/C(=C/c1ccc(F)cc1)C(=O)N1CCCC1)c1ccccc1	0.7	nt	-0.6	-1.9	3.5	0.67	i
Cc1ccc(OCCC(=O)OCC(=O)Nc2cc(S(=O)(=O)N(C)C)ccc2C)cc1	2.6	-3%	7.4	5.2	-2.6	0.71	i
O=C1NC(=S)N/C1=C/c1cc([N+](=O)[O-])ccc1N1CCOCC1	9.2	-7%	-1.5	-2.3	1.4	0.68	nt
O=C(CN(C(=O)CNC(=O)c1ccco1)c1ccc(F)cc1)NC1CCCCC1	-1.4	nt	-4.3	-1.0	-1.0	0.67	i
CC(=O)Nc1ccc(/C=N/NC(=O)CC2CCCCC2)cc1	nt	nt	-2.8	-0.2	nt	nt	i
CC12CCC(=O)N1C(C(=O)NNC(=O)c1ccccc1)CS2 (centres undefined)	0.9	1%	-1.9	-4.0	4.0	0.68	i
Cc1ccc(S(=O)(=O)NCC(=O)OCC(=O)c2cc(C)n(-c3ccccc3)c2C)cc1	3.1	1%	nt	1.2	0.9	0.68	nt
O=C(NCCc1ccccc1)C1CCN(S(=O)(=O)c2ccc(-c3nn[nH]n3)cc2)CC1	0.1	1%	nt	-0.1	1.5	0.66	nt

With a hit mark in RanGTP-Impb inh, among the entries above:
SMILES	UCH37 DUB inh	Vif TR-FRET	MLL AF4-AF9 inh	HNF4A DNA FP	RanGTP-Impb inh	Ecoli growth	FGF22 binding
CSc1ccccc1NC(=O)c1cc2c(=O)n3ccccc3nc2s1	-113	-4%	-0.6	0.6	71*	0.72	i

Two compounds drawn at random from those above:
SMILES	UCH37 DUB inh	Vif TR-FRET	MLL AF4-AF9 inh	HNF4A DNA FP	RanGTP-Impb inh	Ecoli growth	FGF22 binding
O=C(NCCc1ccccc1)C1CCN(S(=O)(=O)c2ccc(-c3nn[nH]n3)cc2)CC1	0.1	1%	nt	-0.1	1.5	0.66	nt
CC(=O)Nc1ccc(/C=N/NC(=O)CC2CCCCC2)cc1	nt	nt	-2.8	-0.2	nt	nt	i

More results:
SMILES	UCH37 DUB inh	Vif TR-FRET	MLL AF4-AF9 inh	HNF4A DNA FP	RanGTP-Impb inh	Ecoli growth	FGF22 binding
CCOC(=O)N1CCC(NC(=O)CS(=O)(=O)Cc2nc(-c3cccc(OC)c3)oc2C)CC1	0.0	-1%&-14%	nt	-0.6	3.2	0.67	nt
CCOC(=O)C1CCCN(C(=O)C2CCN(C(=O)Nc3ccccc3)CC2)C1 (centres undefined)	1.0	-2%	13	-4.3	nt	0.68	i
CCc1c(C)sc(NC(=O)Cn2nc(C(F)(F)F)c3c2CCCC3)c1C#N	3.9	2%	nt	6.7	-0.2	0.73	nt
Cc1cc(OCCCCNC(C)C)cc(C(C)C)c1	1.5	-5%	nt	-4.2	-8.3	0.66	nt
Nc1nnnn1/N=C/c1ccccc1OCc1ccc(Cl)cc1Cl	nt	2%	2.2	-1.0	3.1	nt	i
O=S(=O)(c1ccc(Cl)c(NC(=S)Nc2ccccc2N2CCOCC2)c1)N1CCOCC1	-1.8	21%	-1.3	-3.5	-2.3	0.7	i
COc1cccc(NC(=O)C2CCN(S(=O)(=O)c3ccc4c(c3)CC(C)N4C(C)=O)CC2)c1 (centres undefined)	4.6	nt	1.1	3.6	-1.7	0.69	i
Cc1cc(C(=O)NNCc2ccccc2)no1	-0.5	nt	-2.1	0.2	nt	0.73	i
CC(=O)NCCn1c(SCC(=O)NCc2ccco2)nc2ccccc2c1=O	1.9	1%	nt	-0.6	-1.1	0.68	nt
O=C(NC1CCSC1=O)C1CCCCC1 (centres undefined)	4.3	-2%	-3.2	0.2	4.5	0.74	i
Nc1ccc(-c2n[nH]c(=O)c3ccccc23)cc1N	1.0	22%	nt	7.6	-1.6	0.63	nt
COc1ccc(NC(=O)c2ccc(COc3ccccc3Br)o2)c(OC)c1	0.5	nt	-11	-3.3	-0.8	0.63	i
CCOc1cccc2cc(C(=O)N3CCN(C/C=C/c4ccccc4)CC3)c(=O)oc12	0.1	9%	nt	-2.7	0.4	0.72	nt
CCCSc1nc(N)nc2c1ncn2C1OC(CO)C(O)C1O (centres undefined)	2.6	7%	-0.3	-0.4	nt	0.67	i
Cc1ccc(CN2C(=O)c3ccccc3Sc3ccc(C(=O)NCCN4CCOCC4)cc32)cc1	2.9	nt	1.8	-0.1	5.3	0.66	i
CC(NC(=O)/C(=C/c1cccc([N+](=O)[O-])c1)NC(=O)c1ccco1)C(=O)O (centres undefined)	3.0	nt	nt	-1.1	-1.7	0.66	nt
CN(C)c1ccc(/C=N/NC(=O)CNC(=O)/C=C/c2ccco2)cc1	nt	nt	3.7	3.3	2.2	nt	i
COC(=O)c1ccc(C2/C(=C(/O)c3ccc(OC)cc3)C(=O)C(=O)N2Cc2ccco2)cc1 (centres undefined)	9.8	nt	nt	1.4	2.5	0.7	nt
COc1ccc(CC(=O)Nc2nnc(C(C)C)s2)cc1	1.8	1%	-10	1.5	2.0	0.7	i
Cc1cccc(NC(=O)C2C(C(=O)O)C3C=CC2C32CC2)c1C (centres undefined)	3.8	-1%	nt	-9.8	-0.9	0.77	nt
O=C(CSc1nnnn1C1CCCC1)Nc1cccc(NC(=O)c2ccco2)c1	3.0	6%	nt	6.5	1.5	0.64	nt
CCOC(=O)c1cnn(-c2cc(Oc3ccccc3)ncn2)c1N	0.4	-5%	nt	0.7	0.6	0.74	nt

Not all compounds are listed; rates above refer to the full screens.
